Source: PubChem
FH mod – Identification of activators of human fumarate hydratase by quantitative high-throughput screening; Fumarate hydratase, mitochondrial (Homo sapiens), P07954; FH coupled MDH/diaphorase resazurin fluorescence, 15 min; Potency, µM (series often up to 79.9 µM), for the others: top-dose activity change, negative = inhibition, hits mostly inhibitors; 0.22% of 54,000 active; also: potency is read from the fitted curve at half-maximal effect; % is scaled to controls: 0 for no effect and ±100 for the full control effect; the screen sought activators but most active calls are inhibition curves; nearly all actives have a fitted effect of over 45% in size
Target sequence (P07954 whole entry, looked up): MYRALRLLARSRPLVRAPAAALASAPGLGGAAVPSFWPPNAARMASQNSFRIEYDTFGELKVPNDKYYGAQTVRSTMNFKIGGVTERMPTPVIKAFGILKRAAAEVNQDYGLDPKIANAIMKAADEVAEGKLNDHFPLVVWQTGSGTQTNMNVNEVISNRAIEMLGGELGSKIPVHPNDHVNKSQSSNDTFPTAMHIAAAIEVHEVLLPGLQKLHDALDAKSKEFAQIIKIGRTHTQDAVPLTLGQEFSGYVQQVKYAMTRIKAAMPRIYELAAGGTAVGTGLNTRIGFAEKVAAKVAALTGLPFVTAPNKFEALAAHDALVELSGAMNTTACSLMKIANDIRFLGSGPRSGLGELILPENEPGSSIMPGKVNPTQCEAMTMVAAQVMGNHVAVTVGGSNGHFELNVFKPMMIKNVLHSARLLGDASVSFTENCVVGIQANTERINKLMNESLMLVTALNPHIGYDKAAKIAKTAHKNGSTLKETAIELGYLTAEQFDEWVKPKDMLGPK
GALK inhibitor – qHTS Assay for Inhibitors of Human Galactokinase (GALK): NCGC Sytravon Library Screen | P51570 | recombinant GALK, Kinase-Glo ATP luminescence, 1 h | Potency, µM (top dose mostly 57.5 µM), for the others: top-dose activity, negative = inhibition, most hits filed as inhibitors | 44,000 tested, under 10 active;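 also: plate controls were full GALK reaction for no effect and reaction lacking GALK for full effect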
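Luminescent ATP-depletion readout (Kinase-Glo Plus) after 1 h room-temperature incubation of human GALK (5 nM) with galactose 100 µM and ATP 35 µM, pH 8.0 HEPES/Mg2+ buffer; compounds tested in qHTS format.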
B2AR arrestin ag – qHTS assay of beta-arrestin-biased ligands of beta2-adrenergic receptor: NCGC Sytravon Library Screen. Beta-2 adrenergic receptor (Homo sapiens), P07550. HTLA Tango cells, beta-arrestin recruitment, luciferase luminescence, 18 h. Potency, µM (titrated, usually from 46.1 µM), without a hit: at the top dose activation, actives largely listed as activators. 44,000 tested, under 10 active;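 also: potency is read from the fitted curve at half-maximal effect; 0% = DMSO and full agonism = EC100 isoproterenol or metaproterenol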
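Tango cells expressing recombinant beta2-AR and beta-arrestin were treated with compounds (up to 46 microM titration) in DMEM with 1% FBS for 18 hr at 37 degrees C. Beta-arrestin recruitment drove tTA-dependent luciferase, read by luminescence; curves were fitted and classed.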
p53null 32C kill – qHTS Screen for Compounds that Selectively Target Cancer Cells with p53 Mutations: Cytotoxicity of p53 Null Cells at the Permissive Temperature. Potency, µM (top dose mostly 46.1 µM), inactives show at the top dose activity change, negative = cytotoxicity, actives largely listed as cytotoxic. AID 903, 2007. 0.62% of 55,000 active. H1299-neo p53 null cells, ATP luminescence, 24 h, 32C;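 also: potency is read from the fitted curve at half-maximal effect; 0% = DMSO only and -100% = full killing by 100 µM tamoxifen; nearly all actives have a fitted effect of over 55% in size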
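Cytotoxicity: H1299-neo (no p53), 32C, 24 h treatment. Concentrations up to 46 uM. Readout cellular ATP, luminescence. Normalization to DMSO basal and tamoxifen 100 uM maximal kill.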
p53null 39C tox – qHTS Screen for Compounds that Selectively Target Cancer Cells with p53 Mutations: Cytotoxicity of p53 Null Cells at the Nonpermissive Temperature. H1299 p53-null (neo) cells, 39C, ATPlite viability, 24 h. Potency, µM (titrated, usually from 46.1 µM), inactives show at the highest dose activity, negative = cell killing, usual class: cytotoxic. 0.97% of 55,000 active. AID 904, 2007;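 also: potency is read from the fitted curve at half-maximal effect; 0% = DMSO only and -100% = full killing by 100 µM tamoxifen; nearly all actives have a fitted effect of over 50% in size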
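Luminescent ATP signal reported cell survival after H1299 lines (neo, p53 null; or p53 A138V) received up to 46 uM compound and 24 hr incubation at 39C.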
PTAP-TSG101 blk – qHTS Validation Assay for Inhibitors of HIV-1 Budding by Blocking the Interaction of PTAP/TSG101: Sytravon Library Screen. Fluorescence polarization, FITC-PTAP peptide/Tsg101, 20 min. Potency, µM (titrated, usually from 115 µM), without a hit: top-dose activity change, negative = inhibition, most hits filed as inhibitors. 44,000 tested, under 10 active. AID 1347069, 2019; also: potency is read from the fitted curve at half-maximal effect; 0% is about no effect
Target sequence (Q99816 whole entry, looked up): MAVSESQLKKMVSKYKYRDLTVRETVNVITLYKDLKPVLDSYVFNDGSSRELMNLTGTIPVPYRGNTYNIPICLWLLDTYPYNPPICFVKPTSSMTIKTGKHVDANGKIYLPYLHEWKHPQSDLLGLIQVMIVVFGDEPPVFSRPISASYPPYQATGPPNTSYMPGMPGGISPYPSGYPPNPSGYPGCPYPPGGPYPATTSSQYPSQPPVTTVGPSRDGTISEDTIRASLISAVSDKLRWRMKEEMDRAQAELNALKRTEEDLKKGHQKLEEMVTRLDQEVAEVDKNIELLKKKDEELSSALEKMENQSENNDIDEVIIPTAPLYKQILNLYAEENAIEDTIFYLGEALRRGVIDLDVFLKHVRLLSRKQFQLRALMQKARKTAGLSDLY
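Fluorescence polarization binding of Tsg101 binding domain (10 uM final) to FITC-labeled PTAP-motif peptide (50 nM final) in HEPES pH 7.5/NaCl/Tween 20/EDTA/TCEP buffer; 20 min at r.t. Actives by curve class, <25 µM, efficacy <60% inhibition.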
An asterisk follows results filed as active; ? = inconclusive; . = no result given; [ ] = dose if it differs, or a comment. Calls follow the shape of the dose curve; as a rule, active = well fitted curve in the direction sought with a large enough effect; inconclusive = small, poorly fitted or top-dose-only effect, or another doubt; inactive = no such curve, though single readings can be large; an effect the other way counts as inactive or inconclusive. The list is partial; rates above refer to the full screens.

SMILES | FH mod | GALK inhibitor | B2AR arrestin ag | p53null 32C kill | p53null 39C tox | PTAP-TSG101 blk
Cc1ccc(NC(=O)CN2C(=O)C(c3ccc(C(C)(C)C)cc3)=NC2(C)C)cc1 | 2% | -2% | -4% | -2% | -16% | 2%
Cc1ccc(N(C)S(=O)(=O)c2c(-c3ccccc3)csc2C(=O)O)cc1 | -5% | 5% | 1% | -10% | -17% | -6%
CCn1c(=O)c(C(=O)Nc2ccc(C(C)=O)cc2)nc2ccccc21 | -5% | -5% | -1% | 10µM* | 10µM* | -7%
O=C(NCc1cccs1)c1ccc(CSc2nc3ccncc3n2Cc2ccccc2F)cc1 | -25% | 1% | -2% | 6% | ? | -9%
O=C(Cn1ncc2c3ccccc3n(Cc3cccc(Cl)c3)c2c1=O)N1CCCCCC1 | -14% | 8% | -3% | 4% | -7% | 73%[activator]
Cc1cc(C)c(S(=O)(=O)N2CCN(Cc3nc4ccc(C)cc4o3)CC2)c(C)c1 | ? | -4% | 1% | 15% | 3% | 0%
Cc1ccc2c(=O)cc(C(=O)Nc3ccc(S(=O)(=O)N(C)Cc4ccccc4)cc3)oc2c1 | -1% | -1% | 0% | -7% | -6% | -1%
COc1ccccc1CCNC(=O)Cc1c(C)c2c(cc(C)c3c(C)coc32)oc1=O | 1% | -1% | -1% | 1% | -14% | -2%
COc1ccccc1CCNC(=O)C1CCN(c2nc3ccccc3nc2C(F)(F)F)CC1 | -6% | -1% | 1% | -1% | -18% | -5%
Cc1ccc(C(=O)c2cn(CC(=O)Nc3ccc4c(c3)OCCO4)c3nc(C)ccc3c2=O)cc1 | -6% | 1% | 2% | -16% | -24% | 1%
CCC(C)Sc1c(C(C)C)cnc2c1c(=O)n(C)c(=O)n2C (centres undefined) | -18% | 6% | 1% | 6% | 12% | -8%
Cc1ccc(NC(=O)CN2C(=O)C(c3ccc(F)cc3)=NC2(C)C)c(C)c1 | -2% | 8% | -4% | 3% | 6% | 0%
COc1cccc(NC(=O)CCN2C(=O)c3ccccc3Sc3ncccc32)c1 | -18% | 3% | 2% | 2% | 10% | -2%
CCCOc1ccc(C(=O)Nc2ccc(Cl)c(-c3nc4ncccc4o3)c2)cc1 | -7% | 3% | 1% | -18% | ? | -1%
O=C(c1cccs1)N1CCCc2cc(NS(=O)(=O)c3ccc(Cl)cc3)ccc21 | -28% | -3% | 0% | 18% | 55%[activator] | -6%
CCCCN1C(=O)c2[nH]nc(-c3ccccc3O)c2C1c1ccc(OCc2ccccc2)cc1 (centres undefined) | -20% | 0% | 6% | 35%[activator] | 17% | -15%
COc1ccc(-c2cn3c(n2)sc2cc(C(=O)NCCCN4CCCCCC4)ccc23)cc1 | -4% | 0% | 0% | 1% | -17% | -4%
COc1ccc(OC(C)c2nc3ccccc3[nH]2)cc1 (centres undefined) | -13% | 0% | -2% | 12% | -2% | -1%
Cc1cc(C)c(C#N)c(SCC(=O)Nc2ccccc2C#N)n1 | -6% | 3% | -2% | -3% | 19% | 0%
Cc1ccc(-c2cn3c(n2)sc2cc(C(=O)N4CCCCC4)ccc23)cc1 | ? | -3% | 0% | 16% | 23% | -3%
CC(C)c1ccc(OCc2cc(=O)n3c4c(sc3n2)CCCC4)cc1 | -8% | -1% | -2% | 1% | -6% | 3%
Cc1cc(C)c2c(=O)cc(C(=O)Nc3ccc(C)c(Cl)c3)oc2c1 | -6% | 2% | 0% | 9% | 1% | 1%
CC(=O)N1c2ccccc2C2(O)CC3C(=O)NC(CC(C)C)C(=O)N3C12 (centres undefined) | -8%[53.3 µM] | . | . | . | . | .
COc1ccc(-c2cc(C(=O)Oc3ccc(Cl)cc3)c3ccccc3n2)cc1 | -14% | 1% | -1% | ? | ? | -1%
Oc1ccccc1-c1nc(/C=C/c2ccccc2Cl)no1 | -8% | 1% | 0% | 10µM* | 10µM* | 1%
COc1ccc(Cn2ccc3nc(C)c(C(=O)Nc4ccc(OC)cc4)cc3c2=O)cc1 | -6% | 1% | 1% | 11% | -11% | 2%
COc1ccc(C2C(C(=O)Nc3cccnc3)=C(C)Nc3nc(-c4ccccc4)nn32)cc1OC (centres undefined) | -5% | 5% | 1% | -4% | -21% | -1%
CCOc1ccc(/C=C/c2nc(C#N)c(N3CCC(C)CC3)o2)cc1 | -37% | 3% | -2% | 17% | -29% | 0%
CCc1ccc(NC(=O)CN2C(=O)c3ccccc3Sc3ccc(C(=O)N4CCCC4)cc32)cc1 | -23% | -1% | -1% | 20% | 14% | -2%
COc1ccc(Cc2nc3ccc(C(=O)NCCc4ccc(OC)c(OC)c4)cc3o2)cc1 | -20% | 0% | 0% | 5% | -13% | 2%
Cc1ccc(OCc2nc3ccccc3n2Cc2ccccc2Cl)cc1 | -16% | 2% | 0% | 37%[activator] | 7% | -1%
C[C@@H]1C[C@H](O)/C=C/[C@H](O)[C@@H](O)CC(=O)O1 | -10% | . | . | . | . | .
COc1ccc(NC(=O)c2cc(S(=O)(=O)N3CCCCCC3)cn2C)c(OC)c1 | -8% | -5% | 0% | 3% | 8% | 0%
Cc1nc2nc(SCC(=O)NCCc3ccccc3)nn2c(C)c1Cc1c(F)cccc1Cl | ? | 2% | -1% | 3% | -4% | -1%
COc1ccc(N2C(=O)CS(=O)(=O)C23C(=O)N(Cc2ccccc2)c2ccccc23)cc1 (centres undefined) | -11% | 1% | 0% | 10% | -11% | -1%
CC(C)NC(=O)c1cc2c(Cl)nc3ccccc3c2s1 | ? | 9% | 1% | -10% | -28% | -6%
Cc1ccc(NC(=O)c2ccc(-n3c(C)nnc3C)cc2)cc1F | -3% | 1% | 1% | -3% | 3% | -5%
COc1ccc(CCNC(=O)CCc2c(C)nc3cc(-c4ccccc4OC)nn3c2C)c(OC)c1 | -36% | 0% | 0% | -9% | 16% | -1%
CN1CCN(CCCNC(=O)c2ccc3nc(Cc4ccccc4)oc3c2)CC1 | 3% | 0% | 1% | -2% | ? | -2%
Cc1ccc2c(CC(=O)Nc3ccc(S(=O)(=O)N4CCCCC4C)cc3)coc2c1C (centres undefined) | -12% | -4% | 0% | 9% | 25% | 1%
COc1ccc(S(=O)(=O)NCCc2sc(C)nc2C)cc1 | -6% | 0% | 0% | -1% | 19% | -3%
O=C(NC1(C(F)(F)F)C(=O)Nc2c1c(=O)[nH]c(=O)n2-c1ccc(F)cc1)c1ccccc1 (centres undefined) | 6% | 4% | 0% | -8% | -18% | 0%
COc1ccc(NC(=O)CN2C(=O)C(c3ccc(C(C)(C)C)cc3)=NC2(C)C)cc1Cl | -7% | 4% | -4% | 0% | -12% | 0%
COCCCNC(=O)c1ccc2c(c1)N=C(C)c1c(C)ccc(C)c1S2 | -4% | 1% | -1% | 1% | ? | -5%
CCC1CCCCN1CCCNC(=O)c1ccc2c(c1)sc1nc(-c3ccc(F)cc3)cn12 (centres undefined) | -5% | -3% | 1% | 6% | -13% | -10%
CC1CCN(S(=O)(=O)c2ccc3c(ccc(=O)n3CC(=O)NCc3ccccc3)c2)CC1 | -16% | -2% | -1% | 11% | 0% | 2%
Cc1ccccc1Cn1c(=O)n(CCc2ccccc2)c(=O)c2c(C)c(C)sc21 | -18% | -4% | -1% | 8% | -19% | -1%
Cc1nn(Cc2ccccc2Cl)c(C)c1CN(C)CC(O)COc1ccc(Cl)cc1 (centres undefined) | 0%[53.3 µM] | . | . | . | . | .
COc1cc(O)ccc1-c1nc2cc(C)ccn2c1Nc1ccccc1C | ? | 0% | 4% | 8% | ? | -4%
Cc1cc(F)ccc1-n1nnc(C(N)=O)c1C | 1% | 0% | 1% | 8% | -4% | -3%
CCOc1ccccc1CNCc1c(C(=O)O)c(C)n(Cc2ccc(Cl)cc2)c1C | -3% | 6% | -4% | -4% | -12% | 0%
Cc1cc(C)c2c(=O)cc(C(=O)Nc3ccccc3C(F)(F)F)oc2c1 | -9% | -1% | -1% | 1% | -12% | 14%
C[C@@H]1C[C@H](C)CN(CCC(=O)Nc2ccc(Br)cc2)C1 | 2% | . | . | . | . | .
O=C(c1cccs1)N1CCCc2cc(NS(=O)(=O)c3ccc(F)cc3F)ccc21 | -12% | -2% | -1% | -4% | -12% | -11%
COC(=O)c1ccccc1NC(=O)C1=C(C)C(=O)OC12CCCCCC2 | -27% | 2% | 1% | -11% | 1% | -1%
COc1cccc2nc(-c3cccs3)nc(NN3C(=O)C=C(C)C3=O)c12 | 3% | . | . | . | . | .
CCCCN(CC)CCCNC(=O)c1cc2c(=O)oc3ccc(C)cc3c2s1 | -12% | 1% | -2% | 3% | 10% | -3%
COc1ccc(C2NC(=O)N(C)C3=C2C(=O)N(c2ccc(C)cc2)C3)cc1 (centres undefined) | 3% | 0% | 0% | 19% | -7% | -6%
CCOCCCn1c(=N)c(C(=O)NCc2ccccc2)cc2c(=O)n3ccccc3nc21 | 1% | 1% | -2% | 4% | 2% | -4%
CCOc1cccc(C(=O)Nc2cc(C)c(O)c(-c3nc4ncccc4o3)c2)c1 | 8% | 10% | 1% | . | . | -4%

Four of these compounds in another layout.
COCCCNC(=O)c1ccc2c(c1)N=C(C)c1c(C)ccc(C)c1S2
  FH mod: -4%
  GALK inhibitor: 1%
  B2AR arrestin ag: -1%
  p53null 32C kill: 1%
  p53null 39C tox: ?
  PTAP-TSG101 blk: -5%

CCC1CCCCN1CCCNC(=O)c1ccc2c(c1)sc1nc(-c3ccc(F)cc3)cn12 (centres undefined)
  FH mod: -5%
  GALK inhibitor: -3%
  B2AR arrestin ag: 1%
  p53null 32C kill: 6%
  p53null 39C tox: -13%
  PTAP-TSG101 blk: -10%

CC1CCN(S(=O)(=O)c2ccc3c(ccc(=O)n3CC(=O)NCc3ccccc3)c2)CC1
  FH mod: -16%
  GALK inhibitor: -2%
  B2AR arrestin ag: -1%
  p53null 32C kill: 11%
  p53null 39C tox: 0%
  PTAP-TSG101 blk: 2%

Cc1ccccc1Cn1c(=O)n(CCc2ccccc2)c(=O)c2c(C)c(C)sc21
  FH mod: -18%
  GALK inhibitor: -4%
  B2AR arrestin ag: -1%
  p53null 32C kill: 8%
  p53null 39C tox: -19%
  PTAP-TSG101 blk: -1%

Going on with the list.
SMILES | FH mod | GALK inhibitor | B2AR arrestin ag | p53null 32C kill | p53null 39C tox | PTAP-TSG101 blk
CCOC(=O)c1nnn(CC(=O)Nc2cc(C)cc(C)c2)c1C(=O)OCC | 2% | -2% | 1% | 17% | 4% | -2%
COc1cccc(CNc2nccn(-c3ccc(OC)c(OC)c3)c2=O)c1 | -9% | -2% | 0% | -2% | -2% | 2%
COC(=O)c1nnn(CC(=O)Nc2cc(F)ccc2F)c1C(=O)OC | -43% | 3% | -1% | 2% | -2% | -1%
CC1=C(C(=O)Nc2cccnc2)C(c2cccc(O)c2)n2nc(SCc3ccccc3)nc2N1 (centres undefined) | 4% | -1% | 2% | 20% | -5% | 2%
